2A Renilla: lowers the Renilla signal of an FMDV 2A StopGo reporter; HEK cells with a luciferase reporter of 2A StopGo recoding; 120,000 tested, 0.32% active; Potency, µM (titrated, usually from 57.5 µM), inactives show top-dose signal change, negative = less light; AID 1745857; active means well fitted falling curve with a large enough effect; inconclusive means small, poorly fitted or top-dose-only effect; inactive means no such curve, though single readings can be large or run the other way; note: nearly all actives have a fitted effect of over 55% in size; overnight with compound
2A firefly: FMDV 2A StopGo reporter, firefly signal | 120,000 tested, 0.23% active | Potency, µM (doses to about 57.5 µM), for the others: at the top dose signal change, negative = less light | HEK cells with a luciferase reporter of 2A StopGo recoding | AID 1745856; active = well fitted falling curve with a large enough effect; inconclusive = small, poorly fitted or top-dose-only effect; inactive = no such curve, though single readings can be large or run the other way; note: nearly all actives have a fitted effect of over 60% in size; overnight with compound
Starred values were filed as active, the others as inactive; u = inconclusive; & = joins results of further samples; [ ] = remark or other dose. % is set by controls: 0 for no effect and ±100 for the full control effect; potency is the fitted concentration of half-maximal effect. A portion of the library. The share of hits here may be higher or lower than overall.

Value order: 2A Renilla | 2A firefly
Cc1ccc(NC(=O)CCCn2c(=O)c3cccn3c3ccccc32)c(Cl)c1
    -12% | -24%
O=C(NC1CC(=O)N(c2ccccc2)C1)c1ccc(S(=O)(=O)N2CCOCC2)cc1 (centres undefined)
    -3% | -23%
Cn1c(=O)c2c(ncn2CC(COCc2ccccc2F)OCc2ccccc2F)n(C)c1=O (centres undefined)
    -19% | -5%
CC(NC(=O)c1cc2ccccc2oc1=O)c1ccccc1 (centres undefined)
    26% | 94%[activator]
COc1ccccc1CNC(=O)c1nn(-c2ccc(C)cc2)c(=O)c2c1c1ccccc1n2C
    -12% | -11%
COc1cccc(CNC(=O)c2c(C)nn(-c3cccc(C)c3)c2-n2cccc2)c1
    -13% | -24%
O=C(NCCc1ccccc1)c1ccc2c(c1)N(Cc1ccccc1F)C(=O)c1ccccc1S2=O (centres undefined)
    -4% | 43%[activator]
CCCNC(=O)CN1CCN(Cc2ncc(-c3ccccc3)o2)CC1
    -6% | 0%
N#Cc1ccc(COC(=O)c2ccc(N3CCCS3(=O)=O)cc2)cc1
    22% | 27%
COc1cc(-c2nc3c4c5c(sc4ncn3n2)CCCC5)ccc1OC(F)F
    -11% | -6%
Cc1ccc(-c2cnc(CCC(=O)N(C)CC(=O)Nc3ccccc3Br)o2)cc1
    10% | 96%[activator]
CC(C)c1nnc(NC(=O)C2CCN(C(=O)c3ccc(F)cc3)CC2)s1
    18% | 9%
CCOC(=O)c1sc2ccccc2c1S(=O)(=O)Nc1ccc(CC)cc1
    81%[activator] | 27%
Cc1cccc(C(=O)Nc2nc(-c3ccc(Br)cc3)ns2)c1
    6% | 20%
Cc1ccc2c(c1)N(C(=O)N1CCC(C(=O)NC3CCCCCC3)CC1)CCO2
    -8% | -13%
Cc1cc(I)ccc1NC(=O)C1CC2CCC1C2 (centres undefined)
    6% | 100%[activator]
COc1ccc(C(=O)c2ccccc2O)c(O)c1
    8% | 11%
Cc1sc2ncn(CC(=O)N3CCN(c4cccc(Cl)c4)CC3)c(=O)c2c1S(=O)(=O)N1CCC(C)CC1
    -11% | -17%
Cc1ccc(C(=O)NCC(O)c2ccc(F)cc2F)cn1 (centres undefined)
    19% | 0%
CSc1ccccc1C(=O)Nc1ccc(C(C)(C)C)cc1
    7% | 124%[activator]

(cont.)
Value order: 2A Renilla | 2A firefly
CCOC(=O)Cn1c(CN2CCN(C(=O)OCC)CC2)nc2c1c(=O)n(C)c(=O)n2C
    5% | 8%
CCc1ccc(/C=C/C(=O)O)cc1
    -11% | 0%
Cc1c(CC(=O)NCCCN2CCOCC2)c(=O)oc2cc(O)ccc12
    -10% | -2%
CC(NC(=O)c1nccnc1N)c1ccco1 (centres undefined)
    -5% | 15%
O=[N+]([O-])c1cccc(/C=N/OCc2c(F)cccc2Cl)c1
    -7% | 108%[activator]
O=C(Nc1cccc(F)c1)c1ncoc1-c1cccc(Cl)c1
    -10% | -5%
CSc1nc2n(n1)C(C(=O)Nc1ccccc1C(F)(F)F)CC(=O)N2 (centres undefined)
    5% | 4%
COc1cc(C(=O)OCc2ccc(Br)cc2)cc(OC)c1OC
    -1% | 0%
N#Cc1nc(-c2ccccc2)c(-c2ccc3c(c2)-c2cc(-c4nc(C#N)c(C#N)nc4-c4ccccc4)ccc2C3=O)nc1C#N
    -22% | 155%[activator]
Cc1ccc(C(=O)Nc2ccc3oc(-c4ccccc4C)cc(=O)c3c2)cc1
    -5% | 45%[activator]
COc1ccc(NC(=O)c2cc3c(OC)cc(OC)c(OC)c3[nH]2)cc1
    -2% | 51%[activator]
O=C(NCc1cccs1)c1cc(-c2cccnc2)nc2ccc(Br)cc12
    -6% | 1%
CCCCCn1nc(C(=O)Nc2cc(OC)c(OC)c(OC)c2)c2ccccc2c1=O
    28% | 28%
Cc1cc(C)c(NC(=O)CN(C)C(=O)c2cc(=O)c3ccccc3o2)c(C)c1
    9% | 17%
COc1ccc(C(CC(=O)NCc2ccc(Cl)cc2)N2Cc3ccccc3C2=O)cc1OC (centres undefined)
    162%[activator] | -14%
Cc1ccc(NC(=O)c2cc(S(=O)(=O)N3CCCC(C)C3)cn2C)c(Br)c1 (centres undefined)
    86%[activator] | 7%
CCN(CC)S(=O)(=O)c1ccc(-c2nc(C#N)c(NC3CC3)o2)cc1
    72%[activator] | -4%
Cc1ccc2nc(C)c(C(=O)N3CCN(Cc4ccccc4C)CC3)cc2c1
    16µM* | 16µM*
CCc1cccc(CC)c1NC(=O)CCS(=O)(=O)c1ccc2c(c1)CCN2C(C)=O
    -6% | -16%
C[N+]1(CCC(C(N)=O)(c2ccccc2)c2ccccc2)CCCCC1
    -4% | -7%[11.5 µM]

More structures follow:
Value order: 2A Renilla | 2A firefly
Fc1ccccc1CNc1ccccc1
    -1% | 16%
O=S(=O)(Nc1nc2ccccc2nc1Nc1ccc(C(F)(F)F)cc1)c1ccccc1
    u | u
Nc1ccc(-c2cc3ccccc3o2)cc1
    0% | 314%[activator]
Cc1ccc(C)c(NC(=O)C2CCCN(S(=O)(=O)c3cn(C)cn3)C2)c1 (centres undefined)
    -3% | -14%
CCN(CC)S(=O)(=O)c1cc(C(=O)Nc2c(C)cc(C)cc2Cl)ccc1C
    u | u
CC(NC(=O)c1ccc(F)cc1Br)c1ccc(F)cc1 (centres undefined)
    5% | 0%
COc1cc(C2CC(=O)N3CN(c4cccc(Cl)c4)CSC3=C2C#N)ccc1O (centres undefined)
    -7% | 21%
CC(C)(C)c1ccc(C(=O)NCC(c2cccs2)S(=O)(=O)c2ccc(F)cc2)cc1 (centres undefined)
    u | u
Cc1oc(-c2ccccc2)nc1C(=O)OCC(=O)NC(C)C(C)C (centres undefined)
    -7% | -1%
Cc1cc(C)cc(-c2nnc(SCC(=O)N3CCC(C)CC3)o2)c1
    16% | 2%
CC(C)c1ccc(CCC(=O)NC2CC3CCC2C3)cc1 (centres undefined)
    12% | 17%
CC(C)OCCCNC(=S)NC1CCCC1
    30%[activator] | 55%[activator]
CCCCC(CC)C(=O)Nc1c(F)c(F)c(F)c(F)c1F (centres undefined)
    11% | 6%
CC(C)C(=O)Nc1ccc(NC(=O)CC(C)(C(=O)O)c2ccccc2)cc1 (centres undefined)
    -6% | 12%
CCOc1ccccc1NC(=O)CSc1nc2ccccc2o1
    13% | 21%
CC(NC(=O)C(C)NC(=O)CNC(=O)OCc1ccccc1)C(=O)O (centres undefined)
    8% | 0%
CCCNC(=O)CCNS(=O)(=O)c1cccc(C(C)=O)c1
    5% | 4%
N#Cc1cccc(Oc2cccc(-c3cnc4ccccc4n3)c2)c1C#N
    -2% | 18%
COCCn1c(C)cc(O)c(C(c2ccc(OC)cc2)N2CCCCC2)c1=O (centres undefined)
    16% | 5%
COc1cc2[nH]c(=O)n(Cc3ccc(C(=O)N4CCN(c5ccc(Cl)cc5)CC4)cc3)c(=O)c2cc1OC
    -17% | -20%

5 entries picked at random from those above, as already listed:
Value order: 2A Renilla | 2A firefly
Cc1ccc(C(=O)NCC(O)c2ccc(F)cc2F)cn1 (centres undefined)
    19% | 0%
N#Cc1ccc(COC(=O)c2ccc(N3CCCS3(=O)=O)cc2)cc1
    22% | 27%
COc1ccc(C(CC(=O)NCc2ccc(Cl)cc2)N2Cc3ccccc3C2=O)cc1OC (centres undefined)
    162%[activator] | -14%
CCCNC(=O)CN1CCN(Cc2ncc(-c3ccccc3)o2)CC1
    -6% | 0%
CCOC(=O)Cn1c(CN2CCN(C(=O)OCC)CC2)nc2c1c(=O)n(C)c(=O)n2C
    5% | 8%

(list continues)
Value order: 2A Renilla | 2A firefly
CCOC(=O)N1CCc2c(sc(NCc3sccc3C)c2C(=O)Nc2ccc(OC)cc2OC)C1
    68%[activator] | u
COc1ccc(CNC(=O)CSCc2nc(-c3ccc(OC)c(OC)c3)oc2C)cc1
    -2% | -6%
CCC(C(=O)Nc1cc(F)ccc1F)n1nc(-c2cc(C)ccc2C)ccc1=O (centres undefined)
    35%&8%[activator] | 17%&3%
CCOc1cc(S(=O)(=O)N2CCN(CCO)CC2)ccc1Br
    -1% | -1%
COC(=O)c1ccc(NC(=O)c2cc3cc(C)ccc3n2C)cc1
    -10% | 6%
COc1cc2nc(SCC(=O)Nc3c(C)cc(C)cc3C)n3nc(CCn4c(C)nc5ccccc54)nc3c2cc1OC
    -9% | 9%
CCOc1ccc(S(=O)(=O)Nc2cccc(-c3nnc4n3CCCCC4)c2)cc1
    58%[activator] | 3%
CC1CCN(S(=O)(=O)c2cn(CC(=O)Nc3cccc(-c4ccno4)c3)cn2)CC1
    9% | -5%
CCN(CC)CCNC(=O)C1CCN(c2nn3cc(-c4ccc(F)cc4)nc3s2)CC1
    1% | 69%[activator]
COc1cc(C(=O)Oc2c(Sc3ccc(C)cc3)c(C)nn2-c2ccccc2)cc(OC)c1OC
    -15% | -10%
COC(=O)CNC(=O)c1ccc(C)c(C)c1
    6% | 18%
COc1cc(OC)cc(N2CCN(S(=O)(=O)c3ccc(-n4cnnn4)cc3)CC2)c1
    -11% | 3%
Cc1ccc(C(CC(=O)O)NC(=O)C2CCC2)cc1 (centres undefined)
    1% | -1%
COCCNC(=O)c1ccc2c(c1)NC(=O)C(CS(=O)(=O)Cc1ccc(F)cc1Cl)N2 (centres undefined)
    -17% | -17%
Cc1ccc(-c2ccc(=O)n(C(C)C(=O)Nc3ccccc3C)n2)cc1 (centres undefined)
    12% | 12%
CCN(C(=O)Cn1nc(Cc2cccnc2)c2ccccc2c1=O)c1ccccc1F
    3% | -19%
Cc1ccccc1/C=C(/C#N)c1nc2ccccc2s1
    -4%[1.06 µM] | 200%[activator]
O=C1CC(c2c(Cl)cccc2Cl)c2c(ccc3ccccc23)N1 (centres undefined)
    7% | -4%
COc1ccc(-c2noc(-c3nnn(-c4ccc(C)cc4C)c3C)n2)cc1
    -6% | 0%
COC(=O)C(C(=O)OC)C(CC(C(C(=O)OC)C(=O)OC)C(C(=O)OC)C(=O)OC)c1cc(OC)ccc1Br (centres undefined)
    -1% | -3%

Remaining list, next part:
Value order: 2A Renilla | 2A firefly
CN(C)c1ccc(C(CNC(=O)c2cccc(C(F)(F)F)c2)N2CCCC2)cc1 (centres undefined)
    -21% | -2%
O=C(NCc1ccccc1CN1CCOCC1)c1nn(-c2ccc(F)cc2)c2c1CCC2
    -9% | -2%
Cc1cc(SCc2c(F)c(F)c(F)c(F)c2F)nc2ccccc12
    5% | 13%
COc1cccc(CSc2nc3n(n2)C(c2ccccc2C)C(C(=O)Nc2ccccc2OC)=C(C)N3)c1 (centres undefined)
    6% | -10%
Cc1cc(C)cc(NC(=O)c2sc3nc(-c4cc5ccccc5oc4=O)[nH]c(=O)c3c2C)c1
    -15% | 16%
Cc1c(CNCc2ccc(OC(C)C)cc2)c(C(=O)O)c(C)n1Cc1cccc(F)c1
    -7% | -17%
CC(OC(=O)c1ccc2c(c1)NC(=O)CS2)C(=O)Nc1cccc(C(F)(F)F)c1 (centres undefined)
    -1%[1.06 µM] | 5%
CCOc1ccc(NC(=O)c2ccc(C#Cc3ccccc3)cc2)cc1
    0% | 0%
C#CCOC(=O)CCC(=O)O
    3% | -1%
COc1ccc(-c2cc(-c3ccc(OC)cc3)on2)cc1
    -2% | 197%[activator]
CC(C)NS(=O)(=O)c1ccc(NC(=O)CCc2ncc(-c3ccc(F)cc3F)o2)cc1
    19% | 0%
Cc1ccc(C2=NN(C(=O)CNc3ccc(C(=O)N(C)C)cc3)C(c3ccco3)C2)o1 (centres undefined)
    -1% | 62%[activator]
CC1CC1C(=O)NC1CCC(c2ccccc2)CC1 (centres undefined)
    9% | 23%
Cc1ccc(C(=O)c2oc3ccccc3c2NC(=O)Cc2coc3cc(C)ccc23)cc1
    -3% | -7%
CCc1ccccc1NC(=O)c1nc2ccccc2nc1Cl
    -32% | -2%
CCOc1ccc(/C=N/OCc2ccc(F)cc2Cl)cc1
    13%[1.06 µM] | 63%[activator]
CCN(CC)S(=O)(=O)c1ccc(Oc2cccc(C)c2)c(NC(=O)c2ccccn2)c1
    26% | -18%
Cc1cc(=O)oc2cc(OC/C(=N\O)c3ccc(Cl)cc3)c(Cl)cc12
    -5% | 6%
CN(c1ccccc1)S(=O)(=O)c1ccc(NC(=O)c2cc(=O)c3ccccc3o2)cc1
    7%&-3% | 20%&-11%
O=C(Cc1csc(-c2cccs2)n1)Oc1ccc2cc(Br)ccc2c1
    -3%[1.06 µM] | u

(cont.)
Value order: 2A Renilla | 2A firefly
COc1ccc2c(c1)c1c(c(=O)n(-c3ccccc3)c(=O)n1CC(=O)NCCC1=CCCCC1)n2C
    -11% | -17%
Cn1c(COc2ccccc2Cl)nnc1SCCOc1ccc(Cl)cc1
    0% | 7%
c1ccc(CNc2ncnc3[nH]ncc23)cc1
    u | -26%
CCNC(=O)c1cc2c(s1)CCC(C(C)(C)C)C2 (centres undefined)
    -4% | 163%[activator]
Cc1ccc(CCNC(=O)c2ccc(NC(=O)N3CCSc4ccccc43)cc2)cc1
    -5% | -9%
CCc1ccc(C(=O)Nc2ccc(N(C)C)cc2)cc1
    15% | 112%[activator]
O=C(CSc1cn(CC(=O)N2CCCC2)c2ccccc12)Nc1cc(C(F)(F)F)ccc1Cl
    66%[activator] | -6%
Cc1cc2oc(=O)cc(CN3CCN(c4ccc(F)cc4)CC3)c2cc1O
    u | u
CC1CCC(NC(=O)c2ccc(CSc3nc4ccncc4n3Cc3ccc(F)cc3)cc2)CC1 (centres undefined)
    -23% | -12%
O=C(Nc1cccnc1)c1cc(-c2ccccn2)nc2ccccc12
    10% | 10%
Cc1ccc(-c2c(CN3CCN(c4cccc(C(F)(F)F)c4)CC3)csc2C)cc1
    -7% | -12%
